Bioassay records from PubChem BioAssay.
KSHV LANA nucl: inhibitors of KSHV LANA binding to nucleosomes; z-score (concentration not given with the values); FITC-LANA1-23 / chicken nucleosome fluorescence polarization; active compounds read low; AID 720717; 0.3% of 51,000 active;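 active means both repeat wells score below -2 in polarization z-score versus plate sample wells, excluding overly bright wells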;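 further: 100 nL library stock added to about 30 µL; numbers are from one replicate; some results filed as inactive read as strong as hits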
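System – purified chicken nucleosomes with FITC-labelled LANA N-terminal peptide (1-23) · Amount – 240 nM purified chicken nucleosomes (480 nM peptide binding sites), final · Also added – 50 nM FITC-LANA1-23 probe · Medium – TEN-BT buffer, pH 7.5 · Incubation – compound with peptide–nucleosome mix 10–45 min at room temperature · Detection – fluorescence polarization, ex 480 nm, em 535 nm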
Ab BasE inh: blocks the Acinetobacter baumannii siderophore enzyme BasE | purified BasE, fluorescence polarization binding displacement | inhibition, % (test concentration not listed) | 0.1% of 84,000 active;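 active means both replicates above 25% with normal brightness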;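 further: 0% = negative plate control signal and 100% = positive plate control signal; stock transfer was 100 nL into about 30 µL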
Active calls of the source: *; . = no result given; & = joins results of further samples. These rows are one share of the data; count on the stated rates, not on these rows.

SMILES | KSHV LANA nucl | Ab BasE inh
CC(C)c1ccc(NC(=O)C(c2ccc3c(c2)OCO3)N2CCC3(CC2)OCCO3)cc1 (configuration not stated) | 0.683 | 1.0
Cc1ccc(-c2cc(=O)c3ccc4ccccc4c3o2)cc1 | . | 0.8
Cn1c(SCc2ccccc2)nnc1C1CCN(C(=O)Nc2ccccc2)CC1 | -0.715 | -0.5
Cc1ccc(S(=O)(=O)NC(CC(C)C)C(=O)N2CCC(C)CC2)cc1 (configuration not stated) | . | 0.0
Nc1ccn([C@@H]2CS[C@H](CO)O2)c(=O)n1 | -0.39 | .
Cc1nn(-c2ccc(F)cc2)c(-n2cccc2)c1C(=O)N1CCCCC1 | 0.453 | 2.7
CSc1ccc(CN(C)C(=O)Cn2[nH]c(=O)c3ccccc3c2=O)cc1 | . | 0.3
S=C(NCc1ccco1)NCC1CC(c2ccccc2)=NO1 (configuration not stated) | . | -0.3
CC(C)(CNC(=O)c1cc2ccccc2o1)N1CCOCC1 | . | 0.0
Cn1/c(=N/NC(=O)c2ccccc2)sc2ccccc21 | . | 2.3
O=C(CN1CCOCC1)N1CCc2ccccc21 | 0.956 | .
O=C(CSCc1cccc(Br)c1)N/N=C/c1ccco1 | -0.762 | 1.0
Cc1c(C(=O)OC2CCOC2=O)oc2c1ccc1ccccc12 (configuration not stated) | . | -2.2
O=C(CSc1nnc2ccccn12)Nc1ccc(N2CCCCC2)cc1 | . | -0.4
Cc1cccc(S(=O)(=O)NCc2ccco2)c1 | -0.239 | 0.5
O=C1CCC(c2cccs2)=NN1CO | . | -0.4
O=C(Cn1nc(-c2nccc3ccccc23)oc1=O)N1CCCc2ccccc21 | -0.712 | 0.2
CCOC(=O)N1CCN(C(=O)Cn2cnc3c(cnn3-c3ccc(C)cc3C)c2=O)CC1 | -0.525 | 0.6
CCN(Cc1ccccc1)Cc1cc(Cl)ccc1O | 0.179 | -1.6
CC(=O)Oc1cccnc1I | -0.236 | .
CC(=O)N[C@@H](Cc1c[nH]c2ccccc12)C(=O)N1CCC(C)CC1 | . | 2.1
O=C(CSc1cn(Cc2ccccc2)c2ccccc12)Nc1nccs1 | -1.12 | 2.1
COc1ccccc1Nc1nn(-c2ccccc2)c2c1C(=O)CCC2 | -0.135 | 1.8
O=S(=O)(NCC(O)c1ccccc1)c1ccccc1 (configuration not stated) | . | 0.4
CCN(CC)C(=O)c1ccc(C(C)(C)C)s1 | -0.009 | .
O=C1N[C@H](Cc2ccccc2)C(=O)N2CCC[C@@H]12 | 0.864 | -0.6
COc1ccc(NC(=O)Cn2cc(C(=O)c3cccs3)c3ccccc32)cc1 | -0.194 | 2.1
CC(=O)Nc1ccc(OCC(=O)N(CC(C)C)C2CCS(=O)(=O)C2)cc1 (configuration not stated) | . | -1.4
CCC1(C)Cc2c(C#N)c(N)n(N)c(=S)c2CO1 (configuration not stated) | 1.25 | -1.9
O=c1sn(-c2ccc(F)c(Cl)c2)c(=O)n1C1Cc2ccccc2C1 | . | -0.8
CCCCn1nnnc1COC(=O)c1sc2cc(Cl)ccc2c1Cl | . | -0.7
Cc1ccsc1C(=O)OCC(=O)N1C(C)CCCC1C (configuration not stated) | . | -1.6
CC(C)NC(=O)CCC1CCCCC1 | . | 1.4
CN(C)S(=O)(=O)N(CC(N)=O)c1ccccc1 | 0.0495 | 5.6
CC(C(=O)Nc1ccc(S(=O)(=O)Nc2ncccn2)cc1)N1C(=O)c2ccccc2C1=O (configuration not stated) | 0.21 | 2.2
CSc1ccccc1NS(=O)(=O)c1ccccc1C(F)(F)F | . | 0.4
O=C(COc1ccc(-c2ccccc2)cc1)NC1CCOC1=O (configuration not stated) | . | -0.6
CCn1c(=O)c2ccccc2n(CC(=O)NCCc2ccc(OC)c(OC)c2)c1=O | -1.75 | 0.8
COc1ccc(NC2SC(=O)N(Cc3ccccc3)C2=O)cc1 (configuration not stated) | . | -1.3
Cc1ccccc1N1C(=O)c2ccc(C(=O)OCc3nnc(-c4cccs4)o3)cc2C1=O | . | 0.6
Cc1ccc(S(=O)(=O)Nc2ccc3nc(C)sc3c2)cc1 | . | -3.5
CC(=O)N1N=C(N)SC1(C)c1ccccc1 (configuration not stated) | -0.346 | 0.3
N#Cc1ccc(C=Nc2ccc(C(N)=O)cc2)cc1 | -0.354 | 0.4
N#CC1=C(Nc2ccc(Br)cc2)CCC1 | -0.906 | 2.2
Cc1nn(Cc2ccccc2Cl)c(C)c1C(=O)N(CC1CCCO1)C1CCS(=O)(=O)C1 (configuration not stated) | . | -0.4

An excerpt from above in order of heavy-atom count, low to high:
SMILES | KSHV LANA nucl | Ab BasE inh
CC(C)NC(=O)CCC1CCCCC1 | . | 1.4
N#CC1=C(Nc2ccc(Br)cc2)CCC1 | -0.906 | 2.2
CC(=O)N1N=C(N)SC1(C)c1ccccc1 (configuration not stated) | -0.346 | 0.3
CN(C)S(=O)(=O)N(CC(N)=O)c1ccccc1 | 0.0495 | 5.6
O=C1N[C@H](Cc2ccccc2)C(=O)N2CCC[C@@H]12 | 0.864 | -0.6
N#Cc1ccc(C=Nc2ccc(C(N)=O)cc2)cc1 | -0.354 | 0.4
Cc1ccsc1C(=O)OCC(=O)N1C(C)CCCC1C (configuration not stated) | . | -1.6
Cc1ccc(S(=O)(=O)Nc2ccc3nc(C)sc3c2)cc1 | . | -3.5
CSc1ccccc1NS(=O)(=O)c1ccccc1C(F)(F)F | . | 0.4
COc1ccc(NC2SC(=O)N(Cc3ccccc3)C2=O)cc1 (configuration not stated) | . | -1.3
O=c1sn(-c2ccc(F)c(Cl)c2)c(=O)n1C1Cc2ccccc2C1 | . | -0.8
CC(=O)Nc1ccc(OCC(=O)N(CC(C)C)C2CCS(=O)(=O)C2)cc1 (configuration not stated) | . | -1.4
COc1ccc(NC(=O)Cn2cc(C(=O)c3cccs3)c3ccccc32)cc1 | -0.194 | 2.1
CCn1c(=O)c2ccccc2n(CC(=O)NCCc2ccc(OC)c(OC)c2)c1=O | -1.75 | 0.8
Cc1nn(Cc2ccccc2Cl)c(C)c1C(=O)N(CC1CCCO1)C1CCS(=O)(=O)C1 (configuration not stated) | . | -0.4
Cc1ccccc1N1C(=O)c2ccc(C(=O)OCc3nnc(-c4cccs4)o3)cc2C1=O | . | 0.6

The listing picks up, repeating the 3 entries before the break.
SMILES | KSHV LANA nucl | Ab BasE inh
N#Cc1ccc(C=Nc2ccc(C(N)=O)cc2)cc1 | -0.354 | 0.4
N#CC1=C(Nc2ccc(Br)cc2)CCC1 | -0.906 | 2.2
Cc1nn(Cc2ccccc2Cl)c(C)c1C(=O)N(CC1CCCO1)C1CCS(=O)(=O)C1 (configuration not stated) | . | -0.4
O=C(OCC(=O)N1c2ccccc2Sc2ccccc21)C1CC(=O)N(Cc2ccco2)C1 (configuration not stated) | . | -1.1
CC(=O)O[C@]1(C(C)=O)CCC2C3C=C(Cl)C4=CC(=O)CC[C@]4(C)C3CC[C@@]21C (some centres not stated) | -0.463&0.239 | 1.3
CCc1cccc(NC(=O)C2CCN(c3nnc(-n4cccc4)s3)CC2)c1 | . | -0.8
Cc1cccn2c(=O)c(/C=C3\SC(=S)N(C(C)C)C3=O)c(N3CC(C)OC(C)C3)nc12 (configuration not stated) | 2.17 | -16.9
CCc1ccc(NC(=O)CCC2=NS(=O)(=O)c3ccccc3N2)cc1 | 0.941 | -2.2
O=c1c(=N\O)/c(=N/O)c(=O)c2ccccc12 | 0.0445 | 8.6
CSc1ccccc1NC(=O)CN(C)Cc1cc(=O)n2ccsc2n1 | . | -1.5
CC(C)C1Nc2ccccc2S(=O)(=O)N1 (configuration not stated) | 0.428 | -0.2
Cc1cccnc1NCC(O)COc1ccccc1 (configuration not stated) | -0.143 | 1.2
Cc1[nH][nH]c(=O)c1C(c1cccc(Cl)c1)C(C#N)C#N (configuration not stated) | -0.349 | 4.0
NC(=O)C1CC(=O)N(c2ccc(OCC(=O)N3CCCC3)cc2)C1 (configuration not stated) | 0.0065 | 0.7
COc1ccc2c(c1)c(C(=O)OCCN(C)C)c(C)n2C | -0.49 | -5.2
COc1ccc(/C(O)=C/c2nc3ccc(C(=O)N4CCN(c5cccc(C)c5C)CC4)cc3[nH]c2=O)cc1 | 0.1 | -2.2
CN1C(=O)C(=Cc2ccccc2OCc2ccccc2)C(=O)N(C)C1=S | . | 0.9
O=C(O)C1CCCN1/C=C/C(=O)C(F)(F)F (configuration not stated) | . | 1.3
CC1(C)CC2CC(C)(CN2C(=O)Nc2ccccc2)C1 (configuration not stated) | -0.976 | 1.7
Cc1ccccc1-n1c(SCC(=O)O)nc2sc3c(c2c1=O)CC(C)(C)OC3 | . | 2.7
COc1ccc(NC(=O)CCNS(=O)(=O)c2ccc3c(c2)c(=O)n(C)c(=O)n3C)cc1 | -0.349 | 1.7
COc1cc(/C=C2\SC(=O)N(C)C2=O)ccc1OCC(=O)O | -0.806 | 2.2
COc1ccc(OCC2NCCc3cc(OC)c(OC)cc32)cc1 (configuration not stated) | 1.22 | -5.6
COc1ccc(N2C(=O)C3SC(N)=C(C#N)C4(CCCCC4)C3C2=O)cc1 (configuration not stated) | . | 0.2
COc1ccc(-c2[nH]ncc2CN2CCC(O)(c3ccc(Cl)cc3)CC2)cc1 | -0.395 | -2.2
CC1CC2C3CCC4=CC(=O)C=C[C@]4(C)[C@@]3(F)[C@@H](O)C[C@]2(C)[C@@]1(O)C(=O)CO (some centres not stated) | 0.111 | -2.5
CSc1[nH]n2c(=O)cc(C)nc2c1S(=O)(=O)c1ccccc1 | 0.774 | -1.3
O=C(O)CNS(=O)(=O)c1ccc2ccccc2c1 | -0.145 | 0.7
CCNC(=O)Cn1cc(C#N)c2ccccc21 | 0.362 | 1.1
CCN(CC)c1nc(-c2ccccc2)nc2ccccc12 | 0.229 | 2.8
COc1ccc(NS(=O)(=O)c2ccc3oc4ccccc4c3c2)cc1OC | -0.557 | 3.0
COCC(=O)NC(c1ccccc1)c1ccccc1 | 0.412 | 2.6
CCCCn1nnnc1COC(=O)c1ccccc1O | . | 2.9
CCCCCCCCCCCCCCCC(=O)O[C@@H]1[C@@H](O)[C@@H](O)C([C@H](NC(=O)[C@@H]2C[C@@H](CCC)CN2C)[C@H](C)Cl)O[C@@H]1SC (some centres not stated) | 0.175 | .
O=c1oc(-c2cccs2)nc2ccc(Br)cc12 | -0.133 | 0.6
NC(=O)C1CC(O)CN1c1ncnc2cc(-c3ccc(F)cc3)sc12 (configuration not stated) | . | 1.3
CC(C)C1CC(CCN2C(=O)CCC2=O)(c2ccccc2)CCO1 (configuration not stated) | -0.47 | 1.4
O=C(CSc1nc2ncccc2o1)NCc1ccco1 | 0.0485 | 1.1
CC1C/C(=C/c2ccccn2)C(=O)/C(=C/c2ccccn2)C1 (configuration not stated) | . | 0.7
CCN(Cc1ccc2c(c1)OCCO2)C(=S)NCc1ccco1 | . | -1.9
O=C1OCCC1Sc1nnc(-c2cccc(S(=O)(=O)N3CCOCC3)c2)n1-c1cccc(Cl)c1 (configuration not stated) | . | -0.7
CCC(=O)Nc1cccc(-c2cnc3ccccc3n2)c1 | -0.4 | 3.8
CC1Cc2ccccc2N1C(=O)c1cnsn1 (configuration not stated) | 0.217 | -2.4
CC1(C)CC(C)(O)P(=O)(c2ccccc2)O1 (configuration not stated) | . | -0.6
CCOC(=O)CSc1nnc(Cc2ccc(Cl)cc2)c(=O)[nH]1 | -0.584 | 0.9
C=CCn1c(SCC(=O)O)nnc1-c1ccco1 | -0.305 | -1.4
CCOC(=O)C1=C(C)N(C2CCCC2)C(=O)NC1c1ccc(Cl)cc1 (configuration not stated) | . | -1.5
Cc1cc(Br)ccc1NC(C)C(=O)N1CC(C)OC(C)C1 (configuration not stated) | . | 1.9
COc1ccc(N2C(S)=C(C#N)C(=O)NC2c2ccccc2)cc1 (configuration not stated) | -0.742 | 1.8
OC1(c2ccccc2F)CCN(CCN2CCCCC2)CC1 | 0.327 | 3.4
CC(=O)Nc1cccc(NC(=O)Cn2c(-c3cccnc3)ccc(C#N)c2=O)c1 | 0.614 | -4.4
CCN1C(=O)/C(=C/C=C2\Oc3ccccc3N2CC)SC1=S | -0.665 | -1.3
CCCCCn1c(=O)[nH]c2cc(C(=O)N3CCN(C4CCCCC4)CC3)ccc2c1=O | -0.058 | 1.0
Brc1ccc(COc2ccc(-n3cnnn3)cc2)cc1 | . | 1.2
CN(CCC#N)C(=O)c1ccc2c(c1)N(Cc1cccc(Cl)c1)C(=O)c1ccccc1S2=O (configuration not stated) | -1.15 | -0.9
CC(C)(C)NC(=O)Cn1nnc(-c2cccs2)n1 | 2.08 | -2.4
COc1cc(CO)ccc1OCc1ccc(Cl)cc1 | -0.291 | -1.9
Cc1nc(-c2cccs2)sc1NC(=O)Nc1ccc(Cl)cc1 | 1.65 | -3.1
Cc1noc(C)c1COC(=O)CN(C)S(=O)(=O)c1ccc(Cl)cc1 | . | 1.1
O=C(N/N=C/c1ccccc1O)c1c[nH]c2ccccc12 | . | -0.2
CC(=O)Oc1cccc2ccc(C#N)nc12 | 0.575 | 3.4
CC1CCc2c(sc3nc(-c4ccc(Cl)cc4)cn23)C1 (configuration not stated) | 1.65 | -2.0
CCN(C(=O)c1ccco1)C1C2CC3CC(C2)CC1C3 (configuration not stated) | 0.633 | 2.1
CC1CCC2[C@](C)(CO)[C@@H](O)CC[C@]2(C)[C@@]12CCC1(CCOC1)O2 (some centres not stated) | 0.702 | 0.0
Cc1ccc(S(=O)(=O)c2ccc(N/N=C/c3c(O)n(C)c(=O)n(C)c3=O)cc2)cc1 | . | -0.1
